Vif TR-FRET = inhibitors of Vif binding to APOBEC3G peptide, primary screen, biochemical, TR-FRET, GST-Vif 1-94, biotin-A3G peptide, dose response retest (AID 1117319); Virion infectivity factor (Human immunodeficiency virus type 1 group M subtype B (isolate …; TR-FRET GST-Vif / biotin-A3G peptide binding; higher % means a stronger effect; test concentration not given here; strong numbers were not always called active; inhibition, %; hits with a dose series show IC50 in µM; actives 0.57% (n = 260,000);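 active = above the screen mean plus three standard deviations and confirmed in dose response; inconclusive = results disagree or hit not tested in dose response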;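 also: Vif residues 1-94 fused to GST binding biotinylated APOBEC3G peptide 110-148; 0% = full assay without inhibitor and 100% = GST in place of GST-Vif; retest series ran down from 100 µM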
LANA-H2A inh = blockers of LANA interaction with H2A/H2B – biochemical, FP readout, HTS, primary screen; Protein LANA1 (Human herpesvirus 8 type P (isolate GK18)), Q9QR71; cell-free LANA-H2A/H2B peptide, fluorescence polarization; inhibition, % (concentration not given with the values); actives 0.6% (n = 320,000); AID 2629, 2010; in the data active = inhibition mostly above about 10%, no sharp cut-off; inactive = mostly below about 6.7%;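 also: stock transfer was 7.5 nL into about 10 µL; 0% = median of vehicle wells and 100% = median of positive control wells; one replicate is shown; the record names a cut of 25% in any replicate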
Calb FLC = C. albicans growth inhibition with fluconazole, primary screen, CaCi-2 strain, Alamar Blue fluorescence. C. albicans CaCi-2 (fluconazole-resistant clinical isolate) + fluconazole, 48 h. growth inhibition, % (concentration not given with the values). actives 0.57% (n = 300,000);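 active = most replicates above 75%; inconclusive = exactly half above 75%; inactive = most below 75%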;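 also: all wells also contain fluconazole at 8 µg/ml as a sub-toxic cotreatment; 0% = median of DMSO wells and 100% = median of geldanamycin control wells; wells of about 8 µL received 7.5 nL stock; the first replicate is given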
ALR inh = inhibitors of human ALR sulfhydryl oxidase, primary screen, biochemical, H2O2 detection, HRP-luminol luminescence, single point; FAD-linked sulfhydryl oxidase ALR (Homo sapiens), P55789; purified ALR, DTT oxidation; inhibition, % (no concentration beside the values); actives 3.8% (n = 290,000);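 active = mean and each replicate at 75% or more; inconclusive = only one of the two met; inactive = neither met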;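 also: stock transfer was 7.5 nL into about 7.5 µL; 0% = neutral wells and 100% = wells with inactivated enzyme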
Target sequence (P55789 whole entry, looked up): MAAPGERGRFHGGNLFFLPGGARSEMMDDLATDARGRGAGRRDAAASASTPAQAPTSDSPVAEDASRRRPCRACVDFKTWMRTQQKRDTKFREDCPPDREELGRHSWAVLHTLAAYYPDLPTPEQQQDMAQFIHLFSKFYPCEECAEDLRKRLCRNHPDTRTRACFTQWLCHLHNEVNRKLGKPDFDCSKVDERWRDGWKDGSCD
RanGTP-Impb inh = inhibitors of RanGTP-importin-beta interaction, primary screen, biochemical, FRET, CFP-Ran, YFP-importin-beta, homogeneous; Ran GTPase (GTP-bound) - importin-beta complex; cell-free CFP-Ran/YFP-importin-beta FRET ratio; inhibition, % (test concentration not listed); actives 1.1% (n = 300,000);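 active = most replicates above 15%; inconclusive = exactly half above 15%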;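 also: 0% = DMSO wells and 100% = Ran loaded with GDP instead of GTP; wells of about 40 µL received 100 nL stock; the first replicate is given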
HNF4A DNA FP = change in binding of human HNF4A to DNA, primary screen, biochemical, fluorescence polarization, FITC-DNA; Hepatocyte nuclear factor 4-alpha (Homo sapiens), P41235; 1 h; activity change, % at 10 µM; actives 0.3% (n = 360,000); in the data active = activity change above about 30%, passing the limit was not always enough;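 also: controls were the assay level and a saturating level of protein; the project sought stronger binding though the title names inhibitors; some compounds called inactive have numbers as strong as hits; positive values seem to mean higher polarization but the record does not say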
Target sequence (P41235 whole entry, looked up): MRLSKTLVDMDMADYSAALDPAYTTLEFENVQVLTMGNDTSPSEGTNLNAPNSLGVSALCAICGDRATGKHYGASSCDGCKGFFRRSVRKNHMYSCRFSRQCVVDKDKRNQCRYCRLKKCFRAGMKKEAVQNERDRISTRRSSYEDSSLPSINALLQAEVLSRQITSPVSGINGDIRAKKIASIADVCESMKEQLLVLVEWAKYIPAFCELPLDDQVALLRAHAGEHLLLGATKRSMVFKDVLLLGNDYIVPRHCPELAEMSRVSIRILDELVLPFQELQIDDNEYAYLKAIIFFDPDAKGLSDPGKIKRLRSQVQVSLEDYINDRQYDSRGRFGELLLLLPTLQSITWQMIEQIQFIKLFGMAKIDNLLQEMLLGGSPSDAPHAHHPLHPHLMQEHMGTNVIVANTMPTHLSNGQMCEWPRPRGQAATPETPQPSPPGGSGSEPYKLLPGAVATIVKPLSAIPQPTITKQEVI
B2AR ag = beta2AR agonists driving receptor internalization, primary screen, cell-based, FAP fluorogen, flow cytometry; response, % (test concentration not listed); actives 0.43% (n = 340,000); Am2.2-beta2AR cells; reference of the scale not given here; Beta-2 adrenergic receptor (Homo sapiens), P07550;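 active = response above a set limit, near 3 SD of response in nonfluorescent compounds, cut at about 42% in these data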;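 also: stock transfer was 100 nL into about 11 µL; a reference agonist was the positive control; negative values mostly stem from fluorescent compounds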
Target sequence (P07550 whole entry, looked up): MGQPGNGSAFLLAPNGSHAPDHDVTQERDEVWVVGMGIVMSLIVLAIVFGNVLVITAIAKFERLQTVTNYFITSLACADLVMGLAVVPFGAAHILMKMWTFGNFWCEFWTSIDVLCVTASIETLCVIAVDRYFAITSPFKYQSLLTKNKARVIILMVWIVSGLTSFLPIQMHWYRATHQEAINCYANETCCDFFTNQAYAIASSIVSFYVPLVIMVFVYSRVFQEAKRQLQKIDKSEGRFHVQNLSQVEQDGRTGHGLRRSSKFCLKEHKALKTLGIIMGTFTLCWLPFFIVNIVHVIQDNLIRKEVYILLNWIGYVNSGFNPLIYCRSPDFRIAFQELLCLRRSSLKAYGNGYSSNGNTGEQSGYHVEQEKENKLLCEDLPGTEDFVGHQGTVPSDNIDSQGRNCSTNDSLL
The depositor's hits bear a star; ? = inconclusive; nt = no result given.

Under each structure: Vif TR-FRET, LANA-H2A inh, Calb FLC, ALR inh, RanGTP-Impb inh, HNF4A DNA FP, B2AR ag
O=C(CC(=O)N/N=C\c1ccccc1)NCCc1ccccc1
  nt, -2.0, 23, -20, 2.5, -0.9, -1
COc1ccc(CN2CCN(C(=O)c3ccco3)CC2)c(OC)c1OC
  nt, -1.7, 3, -31, -1.3, 0.4, 13
O=C(CNC(=O)Cc1cccc2ccccc12)NCc1ccccc1F
  -1%, -4.5, 3, -4, ?, 3.6, -6
CCOC(=O)C1CNc2cc(S(=O)(=O)CC)ccc2O1 (configuration not stated)
  nt, 2.1, -10, -4, 1.7, -0.3, 1
CCCN=Cc1sc2ccc(OCC)cc2c1O
  -1%, 1.8, 10, 23, 4.7, 3.9, 1
O=C(NCC1CCCO1)c1ccc(CS(=O)(=O)Cc2ccc(F)cc2)o1 (configuration not stated)
  70%, 1.5, 4, -10, 0.5, -1.6, 5
NNC(=O)c1cnn(-c2ccccc2)c1-n1cccc1
  14%, -4.0, 2, 15, 0.7, -6.3, -3
COc1cc(S(=O)(=O)Nc2ccc(C)cc2)ccc1NC(=O)c1ccncc1
  2%, -0.7, -29, nt, 3.6, 2.6, -4
CCOC(=O)N1CCN(C(=O)c2ccc(N3CC4CC(C3)c3cccc(=O)n3C4)c(NC(=O)c3ccc(F)cc3)c2)CC1 (configuration not stated)
  nt, -3.1, 2, -1, 0.2, 0.1, 2
COc1ccc(/C=N/NC(=O)c2ccncc2)cc1CN1CCCc2ccccc21
  4%, 0.4, 9, 93*, 2.1, 3.9, 5
COc1ccc(NC(=O)CNS(=O)(=O)c2ccc3nc(C)sc3c2)c(OC)c1
  ?, -2.0, 17, 99*, -3.5, 1.8, -8
CCOc1cc(C2NC(=O)NC(O)(C(F)(F)F)C2C(=O)c2ccc(Cl)cc2)ccc1O (configuration not stated)
  6%, 1.7, -1, 35, 5.4, -0.9, 1
CCc1ccc(OC)c(-c2csc(N)n2)c1
  ?, 2.4, 2, 98*, -0.5, -0.6, 14
COc1cc(C(=O)OCC(=O)N(CC(C)C)C2CCS(=O)(=O)C2)ccc1OCC(C)C (configuration not stated)
  4%, nt, 6, nt, 2.1, -2.0, -7
O=C(Nc1cccc(Cl)c1)N(Cc1nc2ccccc2c(=O)[nH]1)C1CCCC1
  -2%, 0.0, 16, -2, 2.3, -0.7, 4
COc1ccc(C2C(C(=O)N3CCN(c4ccccc4F)CC3)c3ccccc3C(=O)N2C)cc1 (configuration not stated)
  3%, -0.4, 8, -1, -3.5, -2.5, 3
CC(C)C(=O)Nc1ccc(S(=O)(=O)Nc2ccccn2)cc1
  10%, 1.6, 27, 9, -0.5, -2.6, -7
Cc1ccccc1NC(=O)c1cccc(S(=O)(=O)Nc2cccc(C(=O)O)c2)c1
  nt, -0.1, -1, -7, 5.3, -1.2, -10
COc1ccc(OC)c(-c2cc(C(=O)N3CCOCC3)no2)c1
  0%, -8.4, 5, nt, 1.0, -1.9, -1
Cc1c(-c2ccc(F)cc2)[n+](=O)c(-c2ccc(F)cc2)c(C)n1[O-]
  5%, 9.0, -7, 75, -2.6, -4.0, -3
Cc1cc(C)c(S(=O)(=O)N2CCCCC2CCNC(=O)C(=O)NCCN2CCOCC2)c(C)c1 (configuration not stated)
  nt, -5.5, -1, -31, 2.9, -6.2, 2
CCC(C)(C)n1nnnc1C(c1ccc(O)c(OC)c1)N1CCc2ccccc2C1 (configuration not stated)
  13%, 3.0, -3, 30, 0.6, -2.2, 9
CC(=O)c1sc(NC(=O)CN2C(=O)CCC2=O)nc1C
  nt, -8.1, 4, -1, 3.7, 1.1, -10
CC(=O)c1c(C)n(-c2ccccc2)c2ccc(OCC(N)=O)cc12
  -2%, 3.0, 26, nt, -1.5, -4.2, 1
O=[N+]([O-])c1c(NCCO)cc(N2CCCCC2)c2nonc12
  -3%, -0.2, -21, -14, -4.1, 1.5, -3
CC(NS(=O)(=O)c1ccc(Br)cc1)C(N)=O (configuration not stated)
  2%, -1.7, 8, 0, -0.3, -1.5, -10
O=C(CSCC(=O)OCC(=O)c1ccc(Br)cc1)Nc1ccc(Br)cc1
  -7%, -0.6, -7, 25, -2.3, 3.1, -1
Cn1cccc1C(=O)N/N=C/c1c(Cl)cccc1Cl
  -9%, 0.1, -9, -5, 2.5, 5.3, -5
COc1cccc(OC)c1C(=O)Nc1ccnn1C
  0%, 3.4, -1, nt, 1.0, 2.1, -6
O=C(NCCN1CCN(c2ccccc2)CC1)C1(S(=O)(=O)c2ccc(Cl)cc2)CC1
  -2%, 3.7, nt, 99*, nt, -1.0, 4
COc1ccc(N(CC(=O)Nc2ccc(S(=O)(=O)N3CCCC3)cc2)S(C)(=O)=O)cc1OC
  20%, -2.5, -17, -8, -2.0, 5.0, 9
CCOc1ccc(-n2ccnc(SCC(=O)Nc3ccc(CC)cc3)c2=O)cc1
  -6%, -1.3, 27, 99*, -0.1, 2.9, 7
CNC(=S)N1CCC(Cc2ccccc2)CC1
  nt, -3.0, 7, -20, 2.9, 3.8, -4
COc1cccc(CCNC(=O)C2CCC(=O)N(Cc3cccc(OC)c3)C2)c1 (configuration not stated)
  -2%, 2.7, 19, -2, -0.5, 0.7, -5
COc1ccc(/C=C/C(=O)c2c(C)cc(C)[nH]c2=O)c2ccccc12
  nt, -3.6, 19, nt, -15, 5.9, 13
CCOC(=O)Cn1nnc(-c2cc(OC)c(OC)c(OC)c2)n1
  -9%, 2.3, -1, -33, -0.9, -5.6, 16
COc1ccc(C(=O)Cn2c3ccccc3n3nc(CCC(=O)O)c(=O)nc23)cc1OC
  -6%, -5.2, 5, -2, 4.9, 3.6, 12
O=C(CCl)c1ccc2c(c1)CCN2C(=O)C1CC1
  nt, -3.2, ?, -17, 4.9, nt, nt
Cc1ccc(SCC2=NN(c3nc(C)cc(C)n3)C(=O)C2)cc1
  nt, 3.1, 39, 10, ?, 1.8, 0
Cc1ccc(C)c(NS(=O)(=O)c2cc(C(=O)NCC3CCCO3)ccc2C)c1 (configuration not stated)
  nt, 5.8, 9, -5, 1.8, 3.0, 9
CCOc1ccc(C(=O)Nc2ccccc2C#N)cc1[N+](=O)[O-]
  -2%, -1.4, -15, -11, ?, 3.4, -6
CC1(C)N=C(c2ccc(Cl)cc2Cl)C(=O)N1
  1%, 1.8, -8, 3, 0.7, -1.0, 11
CCOc1ccccc1N1C(=O)c2ccc(C(=O)Nc3cccnc3)cc2C1=O
  71%, -6.8, 9, -2, 1.4, -1.3, 0
CCCCCC(=O)Nc1nc(C)c(-c2csc(Nc3ccc(Cl)cc3)n2)s1
  -2%, 9.7, -5, -8, 8.1, 0.6, 15
O=C(COC(=O)c1ccc2c(c1)OCO2)Nc1cccc(F)c1
  4%, 0.2, nt, 1, nt, -1.4, -9
CCOc1ncccc1C(=O)OCc1cn2cc(Cl)ccc2n1
  0%, 5.4, -8, -2, 0.6, -3.6, -5
CN(CCc1ccccc1)C(=O)c1ccc(NC(=O)Cc2ccc(NC(=O)C3CCN(C(=O)CCc4ccccc4)CC3)cc2)cc1
  36%, nt, nt, nt, nt, 3.5, 8
CC1CCCN(C(=O)COC(=O)C2=COCCO2)C1 (configuration not stated)
  -7%, -0.8, nt, 9, nt, -3.3, 0
O=C(Nc1cc(-c2ccccc2)sc1C(=O)O)c1cccc(F)c1
  -2%, -1.4, 14, 56, 2.1, 0.1, 14
COc1ccc(C(C(=O)NC2CCCCC2)N(Cc2ccco2)C(=O)c2snc(C(N)=O)c2N)cc1 (configuration not stated)
  3%, nt, 22, nt, 0.6, 6.0, 12
CCC(NC(=O)CSc1nnnn1C1CC1)c1ccc(Br)cc1 (configuration not stated)
  -4%, -10, nt, 0, nt, 0.1, -9
O=C(c1ccco1)N1CCN(c2ncnc3c2[nH]c2ccc(Br)cc23)CC1
  -3%, nt, 9, nt, ?, -0.9, 29
O=C(Cn1c(C2CC2)nc2ccccc2c1=O)Nc1ccc(Br)cc1
  -2%, 3.9, 5, -1, -5.0, -2.8, 0
COc1ccc(NC2c3ccccc3C(=O)N2Cc2ccco2)cc1OC (configuration not stated)
  12%, 1.7, -1, 100*, 2.6, 0.9, 4
CCC1CCc2sc(C(=O)N3CCN(c4ccccn4)CC3)cc2C1 (configuration not stated)
  nt, 0.2, 17, nt, -0.9, 5.3, -9
CS(=O)(=O)c1cccc(C(=O)Nc2ccc3c(c2)OCCCO3)c1
  3%, 2.2, -4, -30, -1.3, -2.0, -4
CC(=O)CC(C)(C)NC(C)=S
  0%, 5.4, 1, -9, 0.0, -1.5, -4
O=C(c1ccccc1)c1ccc(C(=O)N2CCOCC2)cc1
  -2%, -5.1, 0, -6, 0.3, -2.3, -24
CC(=O)Nc1ccc(S(=O)(=O)N2CCN(C(=O)Cc3ccccc3)CC2)cc1
  ?, -4.8, -19, -3, -1.7, -0.4, 0
Nc1[nH]c(=O)[nH]c(=O)c1N=Nc1cccc(Cl)c1
  -2%, -6.3, 10, 4, 3.8, 3.5, 4

(listing goes on)
Under each structure: Vif TR-FRET, LANA-H2A inh, Calb FLC, ALR inh, RanGTP-Impb inh, HNF4A DNA FP, B2AR ag
NNC(=O)C12CC3CC(C1)CC(n1ncnn1)(C3)C2
  0%, 1.0, -6, 1, -1.1, -3.4, -9
O=C(Oc1ccc(-c2nnco2)cc1)c1ccc(Br)o1
  nt, 0.8, -4, -3, 1.5, -0.1, 1
O=C1SC(c2ccccc2)=C/C1=C\N1CCCCC1
  13%, 0.3, -8, 95*, 1.3, 5.0, -4
Cc1ccc(C(=O)CCC(=O)OCC(=O)Nc2ccc3[nH]c(=O)[nH]c3c2)cc1
  6%, -5.0, -2, 9, 2.1, -4.9, -12
COc1ccc(OCCSc2nnc(CC(=O)Nc3cccc(Cl)c3Cl)n2C)cc1
  6%, -94, -4, -11, 1.0, -1.4, 6
Nc1cnccc1Oc1cccc(C(F)(F)F)c1
  nt, -3.7, -2, 1, 0.1, 0.8, -4
COc1ccc(-c2nc(CN3CCC(C(=O)N4CCOCC4)CC3)c(C)o2)cc1C
  nt, -3.3, -13, 0, 0.3, -0.9, 19
CC12CC3CC(C)(C1)CC(C(=O)N1CCCC1)(C3)C2
  nt, -3.4, -10, -1, ?, 1.3, 4
CN1CCN(C(=O)c2cc(Cl)cc(Cl)c2)CC1
  -3%, -4.5, -7, -5, -0.7, 0.9, -6
CC(=O)OC[C@H]1O[C@@H](O/N=C/C[C@@H]2C=C[C@H](OC(C)=O)[C@@H](COC(C)=O)O2)[C@H](OC(C)=O)[C@@H](OC(C)=O)[C@@H]1OC(C)=O
  10%, -4.5, -12, -5, 4.7, nt, nt
COc1cccc(CN2CC(C(=O)NCCC3=CCCCC3)CCC2=O)c1 (configuration not stated)
  nt, 3.1, 5, -3, 3.9, 2.5, -1
Cc1ccc(CS(=O)(=O)CCC(=O)NC2CC2)cc1
  1%, -8.2, 10, -1, 2.9, -1.2, 2
C=C(Br)Cn1cnc2ccccc21
  1%, 6.9, -15, -10, -0.7, -1.9, -1
Cc1nccn1-c1c2c(c(C#N)c3nc4ccccc4n13)CCC2
  nt, 0.4, 4, nt, -3.2, nt, nt
CCCOC(c1ccccc1)(c1ccccc1)C(Oc1nc(C)cc(C)n1)C(=O)O (configuration not stated)
  0%, -5.4, 12, 1, 0.9, -4.5, 3

High-throughput results as filed in PubChem BioAssay.
